Assay outcomes as filed in PubChem.
Measles inh: inhibitors of measles virus growth in infected cells; 33,000 compounds, 0.1% hits; z-score (no concentration beside the values); infected Vero cells, GFP fluorescence, 64 h; stronger effect = lower value;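 active = z-score under -3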;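 note: score is relative to mean and SD of the compound wells of a plate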
Numbers without * were called inactive. This is a subset (hit frequency here may not be typical).

SMILES	Measles inh
CC(=O)c1ccc(N(C)C)cc1	-1
COc1ccc(CC(=O)Nc2c3c(nn2-c2cccc(Cl)c2)CS(=O)(=O)C3)cc1OC	1.2
Cc1oc(C(C)(C)C)cc1C(N)=O	-1.3
Cc1ccc(-n2nc3c(c2NC(=O)c2ccc4c(c2)OCO4)CS(=O)C3)cc1 (stereo not drawn)	0.31
COc1cc(OC)cc(C(=O)N2C(=S)N(c3ccccc3)C3(C)CC2c2ccccc2O3)c1 (stereo not drawn)	0.7
COc1cccc2c1OC1(C)CC2N(C(=O)c2ccco2)C(=S)N1c1cccc(C)c1 (stereo not drawn)	-0.02
O=C(c1ccccc1)N1CCN(C2CC(=O)N(CCc3ccccc3)C2=O)CC1 (stereo not drawn)	-0.13
Cc1ccc([N+](=O)[O-])cc1NC(=O)c1cncc(Br)c1	-0.03
O=C(Cc1ccccc1)Nc1cccc2c1C(=O)c1ccccc1C2=O	-0.12
CCN1CCc2c(sc(NC(=O)c3ccc(S(=O)(=O)N(CC)CC)cc3)c2-c2nc3ccccc3s2)C1	1.4

The list goes on:
SMILES	Measles inh
O=C(Nc1ccc(-c2nc3ccccc3o2)c(O)c1)c1ccc([N+](=O)[O-])cc1	-0.39
Nc1nc(-c2ccc(Cl)cc2)cs1	-0.91
O=S(=O)(c1ccc(F)cc1)N1CCSC1c1ccc2c3c(cccc13)CC2 (stereo not drawn)	0.72
CCC(=O)N1CCc2cc(Br)cc(S(=O)(=O)CCC(=O)Nc3ccc(OC)c(Cl)c3)c21	-2
Cc1ccc(OC2=CC(=O)c3c(OC(=O)c4ccccc4)c4ccccc4c4onc2c34)cc1	0.06
COc1cc(C2C(C(=O)OCCOc3ccccc3)=C(C)NC3=C2C(=O)CCC3)cc(Cl)c1O (stereo not drawn)	-0.64
CCc1ccccc1NC(=O)Cn1c(=O)n(CC2CCCO2)c(=O)c2ccccc21 (stereo not drawn)	-0.42
CC1=C(C(=O)OCc2ccccc2)C(c2ccc(F)cc2)N2C(=O)CCSC2=N1 (stereo not drawn)	-0.1
COc1ccc(-n2cc(-c3ccc(Br)cc3)[nH]c2=S)cc1	-0.37
CC(=O)OC1C(C)OC(Sc2ccccn2)C(OC(C)=O)C1OC(C)=O (stereo not drawn)	-0.26

Additional records follow:
SMILES	Measles inh
Cc1ccc(N2CC(C(=O)Nc3ccc(N(C)C)cc3)CC2=O)cc1C (stereo not drawn)	0.18
O=C(NC1CCCC1)c1ccc2c(c1)[nH]c(=S)n1c3ccccc3nc21	-0.63
Cc1ccc(CCNC(=O)c2ccc(CS(=O)(=O)Cc3ccccc3C)o2)cc1	1.2
Cc1cc(C)n(C(=O)C2CCCN2S(=O)(=O)c2ccc(Br)cc2)n1 (stereo not drawn)	0.36
Cc1c(NC(=O)Nc2ccc(Cl)cc2)c(=O)n(-c2ccccc2)n1C	-0.05
CC1=C(C(=O)Nc2cccc(C)n2)C(c2cccc(Cl)c2)C2=C(CC(C)(C)CC2=O)N1 (stereo not drawn)	0.46
CCN(CC)c1nc2ccccc2n2c(C)nnc12	0.38
COc1cc(OC)cc(C(=O)NCc2n[nH]c(=S)n2-c2ccc(Br)cc2)c1	1
COc1cccc(NC(=O)CN2C(=O)C3C4C=CC(C4)C3C2=O)c1 (stereo not drawn)	-2
Cc1ccc2nc(SCc3ccc([N+](=O)[O-])cc3)nc(C)c2c1	1.9

(more compounds)
SMILES	Measles inh
COCCCN1C(=O)C(=O)/C(=C(/O)c2ccccc2)C1c1cccc([N+](=O)[O-])c1 (stereo not drawn)	-0.04
O=C1NCCN1Cc1ccc(Cl)cc1	-0.75
Cc1ccc(-n2nc(C(=O)Nc3ccc4c(c3)OCCO4)c3c4ccccc4n(C)c3c2=O)cc1	0.69
O=C(Oc1cccc(NC(=O)c2ccccc2Cl)c1)c1ccc(Cl)c(S(=O)(=O)N2CCCCC2)c1	0.67
COc1ccccc1CNC(=O)c1ccc(N2CC3CC(C2)c2cccc(=O)n2C3)c(NC(=O)c2cccnc2)c1 (stereo not drawn)	0.11
Cc1ccc(NC(=O)N(Cc2cccnc2)Cc2ccccc2Cl)cc1C	0.17
CCN(C(=O)c1cc2c(=O)n3cccc(C)c3nc2s1)c1cccc(C)c1	-0.7
O=C(CN(Cc1ccccc1)S(=O)(=O)c1ccc(Br)cc1)Nc1cccc(Cl)c1	-0.37
O=[N+]([O-])c1c(N2CCOCC2)sc(Cl)c1N1CCOCC1	-0.15
CCOC(=O)c1cc2c(=O)n3ccccc3nc2n(CC2CCCO2)c1=NC(=O)c1cc(OC)cc(OC)c1 (stereo not drawn)	-0.76

7 entries drawn at random from those above:
SMILES	Measles inh
O=C1NCCN1Cc1ccc(Cl)cc1	-0.75
Cc1ccc(NC(=O)N(Cc2cccnc2)Cc2ccccc2Cl)cc1C	0.17
COc1ccccc1CNC(=O)c1ccc(N2CC3CC(C2)c2cccc(=O)n2C3)c(NC(=O)c2cccnc2)c1 (stereo not drawn)	0.11
Cc1ccc(-n2nc(C(=O)Nc3ccc4c(c3)OCCO4)c3c4ccccc4n(C)c3c2=O)cc1	0.69
CCN(C(=O)c1cc2c(=O)n3cccc(C)c3nc2s1)c1cccc(C)c1	-0.7
O=C(Oc1cccc(NC(=O)c2ccccc2Cl)c1)c1ccc(Cl)c(S(=O)(=O)N2CCCCC2)c1	0.67
O=C(CN(Cc1ccccc1)S(=O)(=O)c1ccc(Br)cc1)Nc1cccc(Cl)c1	-0.37

The listing continues:
SMILES	Measles inh
CC1(C)C(=O)N(Cc2ccccc2)c2ccccc2N1C(=O)c1cccc([N+](=O)[O-])c1	-1.2
COc1ccc(C=CC2Nc3ccccc3-c3nnc(SC)nc3O2)cc1 (stereo not drawn)	-0.4
CC1CCCCN1S(=O)(=O)c1ccc(C(=O)Nc2sc3c(c2C(N)=O)CC(C)(C)NC3(C)C)cc1 (stereo not drawn)	-0.51
CCOc1ccc2nc(SCC(=O)Nc3ccc(C(N)=O)cc3)sc2c1	-0.35
CCN(CC)CCn1c(SCC(=O)N2CCC(C)CC2)nc2c(sc3ccccc32)c1=O	-0.03
O=C(Nc1ccncc1)c1ccccc1Cl	0.33
CC1=C(C(=O)Nc2ccccn2)C(c2ccc(Cl)cc2)C2=C(CC(C)(C)CC2=O)N1 (stereo not drawn)	0.44
COc1ccc(-n2nc3cc(C)c(NC(=O)c4cccc5ccccc45)cc3n2)cc1	-0.32
CCN(CC)S(=O)(=O)c1ccc(-c2ccc(S(=O)(=O)N(CC)CC)cc2)cc1	0.8
O=C(c1ccc2c(c1)[nH]c(=S)n1c3ccccc3nc21)N1CCC(O)(c2cccc(C(F)(F)F)c2)CC1	-0.37

Next entries:
SMILES	Measles inh
C#CCOc1ccc2c(c1)c(C(C)=O)c(C)n2CCc1ccccc1	1.8
CCCCc1ccc(NC(=O)c2cnc3n(c2=O)CCS3)cc1	-0.04
S=C1NCN(Cc2ccccc2)CN1Cc1ccccc1	0.7
CC1=CCC2C(=O)N(c3ccc(C(=O)N4CCCCCC4)cc3)C(=O)C2C1 (stereo not drawn)	1.4
O=C(c1cc(Sc2ccc(Cl)cc2)nc2ccccc12)N1CCCCC1	0.52
Cc1ccccc1-c1nc2cc(NC(=O)Cc3ccccc3)ccc2o1	0.26
CCOc1ccc(-n2nc(C(=O)Nc3nc4ccc(OC)cc4s3)c3ccccc3c2=O)cc1	1.6
O=C(Nc1cc2ccccc2cc1NC(=O)c1cccs1)c1cccs1	-0.74
CN(CC(=O)Nc1cccc2c1CCCC2)S(=O)(=O)c1ccc(Br)s1	-0.5
COC(=O)c1c(NC(=O)c2ccccc2)sc2c1CCC2	-0.66

Some of the entries so far, as labelled records.
O=C(c1ccccc1)N1CCN(C2CC(=O)N(CCc3ccccc3)C2=O)CC1 (stereo not drawn)
  Measles inh: -0.13

Cc1ccc([N+](=O)[O-])cc1NC(=O)c1cncc(Br)c1
  Measles inh: -0.03

(cont.)
SMILES	Measles inh
CCCCOc1ccc(-c2nnc(-c3ccc([N+](=O)[O-])cc3)o2)cc1	3.6
CCOC(=O)c1ccc2nc(NC(=O)c3ccc([N+](=O)[O-])cc3)sc2c1	-0.54
CC1=C(C(=O)Nc2ccccc2)C(c2ccccc2O)NC(=S)N1 (stereo not drawn)	0.67
COc1ccccc1CNC(=O)CCS(=O)(=O)Cc1ccccc1Cl	-0.39
O=C(c1ccccc1)c1cccc(N2C(=O)c3ccc([N+](=O)[O-])cc3C2=O)c1	0.24
CCOC(=O)c1c(C)c(C)n(CCc2c[nH]c3ccccc23)c1C	0.31
CCc1ccc(C2NC(=O)NC(C)=C2C(=O)OC2CCCCC2)cc1 (stereo not drawn)	-1.2
CCOc1cccc(NC(=O)C2CC(=O)N(C)C(=Nc3ccc(C)c(Cl)c3)S2)c1 (stereo not drawn)	-0.26
COc1ccc(C(=O)CSc2nnnn2C)cc1	-0.58
CC(=O)Nc1nc(-c2ccc(C)cc2)c(-c2ccccc2)s1	-1.2

The results go on:
SMILES	Measles inh
Cc1ccc(-n2c(C)ccc2C)nc1	1.5
CCCCn1c(=NC(=O)c2cccc3ccccc23)c(C(=O)OCC)cc2c(=O)n3ccccc3nc21	0.84
COc1ccc(OC)c(NS(=O)(=O)c2cc(Br)cc3c2N(C(=O)C2CC2)CC3)c1	1.7
O=[N+]([O-])c1ccc(-c2nc(N3CCOCC3)c3ccccc3n2)cc1	-0.01
CC1CN(c2c3c(c(C#N)c4nc5ccccc5n24)CCC3)CC(C)O1 (stereo not drawn)	0.44
Cc1cccc(CS(=O)(=O)c2ccc(C(=O)N3CCN(c4cc(C)ccc4C)CC3)cc2[N+](=O)[O-])c1	-0.38
CCOC(=O)c1sc(=NC(=O)c2ccc(S(=O)(=O)N3CCCc4ccccc43)cc2)n(C)c1C	0.47
COc1ccc(NC(=O)C(C(C)C)N2C(=O)c3ccccc3C2=O)c(OC)c1 (stereo not drawn)	1.4
COc1cc(OC)cc(C(=O)Oc2c(S(=O)(=O)c3ccccc3)c(C)nn2C(C)(C)C)c1	-1.3
CCCCCc1ccc(-c2ccc(-c3nc(-c4ccncc4)no3)cc2)cc1	2.2

Next entries.
SMILES	Measles inh
Nc1cc2nc[nH]c2cc1N	0.24
CCC(=O)Nc1cccc(-c2nc3ccccc3[nH]2)c1C	-0.18
COc1ccc(Br)cc1CN1C(=O)c2ccccc2C1C(=O)NC1CCC(C)CC1 (stereo not drawn)	-1
Cc1oc2cc(OCc3ccc(Cl)cc3)ccc2c(=O)c1Oc1ccccc1	0.93
CC(C)c1ccc(-c2csc(NC(=O)c3ccccc3Cl)n2)cc1	0.51
O=C(c1ccc(C(F)(F)F)cc1)N1CCCC1	0.9
CCN(CC)C(=O)CN(c1cc(C(F)(F)F)ccc1Cl)S(=O)(=O)c1ccccc1	-0.9
Cc1ccc(/C(O)=C2\C(=O)C(=O)N(Cc3cccnc3)C2c2ccccc2[N+](=O)[O-])cc1 (stereo not drawn)	2.3
O=c1oc2ccc([N+](=O)[O-])cc2cc1-c1csc(Nc2ccccc2F)n1	-0.62
Cc1ccc(/C(O)=C2\C(=O)C(=O)N(CCCC(=O)O)C2c2cccc(F)c2)cc1 (stereo not drawn)	0.2

The listing continues.
SMILES	Measles inh
O=C(c1ccccc1N1C(=O)c2cccc3cccc(c23)C1=O)N1CCOCC1	0.86
COc1ccc(N2C(=O)CC(N3CCN(C(=O)c4ccccc4)CC3)C2=O)cc1 (stereo not drawn)	0.81
O=C(CCS(=O)(=O)c1cccc2nonc12)N1CCN(C(c2ccccc2)c2ccc(Cl)cc2)CC1 (stereo not drawn)	-0.53
O=C1C2CC=CCC2C(=O)N1c1ccc(N2CC=C(c3ccccc3)CC2)c([N+](=O)[O-])c1 (stereo not drawn)	-0.67
COc1cccc(C2=NC(C)(C(C)C)NC(c3ccccc3O)C2)c1 (stereo not drawn)	0.3
COc1ccc(C(=O)Oc2ccc(C=Nc3ccc(Cl)cc3)cc2[N+](=O)[O-])cc1	-0.34
O=C(Nc1nccs1)c1ccc(F)cc1	-0.76
COc1cc([N+](=O)[O-])ccc1N1C(=O)C2C3C=CC(CC3)C2C1=O (stereo not drawn)	-0.15
CCOC(=O)c1sc(C)c(C(=O)NCCCN2CCOCC2)c1N	0.61
O=C(O)C1CCCN(S(=O)(=O)c2ccccc2)C1 (stereo not drawn)	1.1

Following part.
SMILES	Measles inh
Cc1ccc(Cc2c(C)nc3c(C(=O)O)cnn3c2C)cc1	2.6
COc1cc(C2C3=C(CCCC3=O)Nc3ccc4ncccc4c32)ccc1OC(C)=O (stereo not drawn)	-1
O=[N+]([O-])c1ccc(-c2csc(=Nc3ccc(F)cc3)n2CCCCCCO)cc1	1.2
O=C(O)Cc1sc(-c2ccccc2)nc1-c1ccc(Br)cc1	-0.13
CC[n+]1oc(C)c2ccccc21	-0.06
CCN(CC)c1ccc(Nc2nc(-c3c(C)nc4cc(C)ccn34)cs2)cc1	-0.98
CCN(CC)S(=O)(=O)c1ccc(C(=O)Nc2nc3c(ccc4ccccc43)s2)cc1	-0.75
O=C(c1ccccc1Cl)n1c(Cc2ccccc2)nc2ccccc21	-0.13
CN1C(=O)c2ccccc2C(C(=O)N2CCOCC2)C1c1cn(C)c2ccccc12 (stereo not drawn)	1.1
CCc1ccccc1NC(=O)c1cc(S(=O)(=O)N2CCN(c3ccccc3Cl)CC2)ccc1F	1.2

Next part:
SMILES	Measles inh
O=C(CCS(=O)(=O)c1nc(-c2ccc3c(c2)OCO3)cc(C(F)(F)F)n1)Nc1cccnc1	-0.25
CCCSc1nc2c([nH]c3ccccc32)c(=O)n1-c1ccc(OC)cc1	-0.72
O=S(=O)(c1ccc(CCCl)cc1)N1CCOCC1	-0.23
COc1ccccc1NC1=C(Cl)C(=O)N(c2cccc(C)c2C)C1=O	0.96
O=S(=O)(Nc1ccc(S(=O)(=O)N2CCc3ccccc32)cc1)c1ccc(Cl)cc1	0.03
COc1ccc(-c2cc(C(=O)NCCCn3ccnc3)c3ccccc3n2)c(OC)c1	-0.72
Cc1ccc(N2C(=O)C(Cl)=C(N3CCCCC3)C2=O)c(C)c1	0.86
